StopGo RLuc: Primary qHTS Assay for Foot and Mouth Disease Virus Antivirals against NCGC Sytravon and CBC Compound Libraries: Renilla Luciferase Signal; HEK cells with a luciferase reporter of 2A StopGo recoding; Potency, µM (doses to about 57.5 µM), for the others: top-dose signal change, negative = less light; 0.32% of 120,000 active; AID 1745857, 2022; active means well fitted falling curve with a large enough effect; inconclusive means small, poorly fitted or top-dose-only effect; inactive means no such curve, though single readings can be large or run the other way; note: nearly all actives have a fitted effect of over 55% in size; overnight with compound
2A firefly: Primary qHTS Assay for Foot and Mouth Disease Virus Antivirals against NCGC Sytravon and CBC Compound Libraries: Firefly Luciferase Signal. AID 1745856, 2022. Potency, µM (highest dose often 57.5 µM), without a hit: top-dose signal change, negative = less light. 0.23% of 120,000 active. HEK cells with a luciferase reporter of 2A StopGo recoding; active = well fitted falling curve with a large enough effect; inconclusive = small, poorly fitted or top-dose-only effect; inactive = no such curve, though single readings can be large or run the other way; note: nearly all actives have a fitted effect of over 60% in size; overnight with compound
* marks the source's active call; other numbers are inactive results; u = inconclusive; & = joins results of further samples; [ ] = dose if it differs, or a comment. % is set by controls: 0 for no effect and ±100 for the full control effect; potency is the fitted concentration of half-maximal effect. Some of the compounds tested (hit frequency here may not be typical).

SMILES | StopGo RLuc | 2A firefly
Cc1nc2cc(NC(=O)c3cccc(S(=O)(=O)Nc4ccc(SC(F)F)cc4)c3)ccc2o1 | -54.2% | u
CCOc1ccc2c(c1)cc(C(=O)Nc1cccc(F)c1)n2C | -2.7% | 7.4%
COc1cc(NC(=O)CCc2c(C)c3ccc(C)cc3oc2=O)cc(OC)c1OC | 8.2% | 22.9%
C=CCN1C(=O)C(=O)N(Cc2coc(-c3ccc(C)cc3)n2)C1=O | -4.2% | 9.4%
Cc1ccc2c(c1)-c1nc(-c3ccc4c(c3)NC(=O)CO4)cc(-c3ccc(Cl)cc3)c1CO2 | -4.6% | -12.9%
CO/N=C(\C)c1ccc(OCc2ccccc2)cc1 | 15.5% | 136.2%[activator]
COC(CNC(=O)CCc1c(C)nc2c(-c3ccc(F)cc3)c(C)nn2c1C)OC | -10.0% | -5.6%
Cc1cc(C)cc(NC(=S)NCCC(c2ccccc2)c2ccccc2)c1 | 12.1% | 19.5%
CCCCCCCCS(=O)CC(O)CCl (stereo not given) | 7.1% | 25.9%
COc1cccc(CNC(=O)Cn2nc3c(cc2=O)CCCC3)c1OC | -8.4% | -14.4%
O=C(O)CNCc1cccnc1 | 12.5% | 14.8%
CCOc1ccc(-n2c(Cc3ccccc3)nnc2SCc2nc(-c3ccccc3OC)no2)cc1 | -2.5% | -23.0%
O=C(c1cc(-c2ccc(Cl)cc2)nc2ccccc12)N1CCC1 | 26.9% | 0.0%
CCOc1ccc(NC(=O)CCn2nc(-c3ccccc3OC)c3c(C)cc(C)nc32)cc1 | 12.5% | -11.8%
CC(NCc1cccs1)c1ccccc1 (stereo not given) | 9.9% | 6.7%
CC(=O)c1ccc(NC(=O)Cn2nc(-c3ccccc3)cc(NC(=O)C(C)C)c2=O)cc1 | -1.0% | -4.8%
CCC1=C(c2ccc(C)cc2)S(=O)(=O)N=C1N1CCC(C(=O)Nc2ccccc2F)CC1 | 58.7%[activator] | -11.5%
CC(C)(C)c1ccc(C(=O)Nc2cc(C(F)(F)F)ccc2F)cc1 | 18.5% | 141.8%[activator]
CCOC(=O)C1CCN(C(=O)Cn2ncc3c4ccccc4n(Cc4ccccc4F)c3c2=O)CC1 | -0.4% | 5.9%
CCn1c(C(O)c2cc(OC)ccc2OC)nc2ccccc21 (stereo not given) | 5.1% | -4.2%
O=C(COc1ccccc1)NC12CC3CC(CC(C3)C1)C2 | 21.5% | 39.7%[activator]
COCCn1c(-n2nc(C)c(C)c2C)nc2c1c(=O)n(Cc1ccccc1C)c(=O)n2C | -11.5% | 4.6%
COc1ccc(NC(=O)CCS(=O)(=O)c2cc(Br)cc3c2N(C(C)=O)CC3)c(OC)c1 | -13.7% | -16.6%
COc1ccc(C(=O)N(C)Cc2cc(Br)ccc2OC)cc1F | 133.1%[activator] | 8.8%
COc1ccccc1CNC(=O)CSc1ncc2c(n1)-c1ccccc1N(Cc1ccc(C)cc1)S2(=O)=O | 11.7% | 0.0%

(more compounds)
SMILES | StopGo RLuc | 2A firefly
COc1ccc(CNC(=O)Cc2csc3ccccc23)cc1OC | -12.2% | 55.6%[activator]
Cc1ccc(CN2C(=O)CN(C3CCCCCC3)C(=O)C2c2ccc(F)cc2)cc1 (stereo not given) | -14.3% | -18.8%
O=C(Nc1ccc(Cl)cc1C(F)(F)F)c1ccc(Cl)c(Cl)c1 | 71.6%[activator] | 0.0%
COC(=O)c1cccc(Nc2c(-c3ccc(O)c(OC)c3)nc3nc[nH]n23)c1 | -11.5% | 0.8%
CN1CCCC1CNC(=O)c1cc2ccccc2o1 (stereo not given) | -21.6% | -9.9%
Cc1ccc(-c2nc(C#N)c(NCCCN(C)C)o2)cc1 | 6.6% | 0.0%
COc1ccc(C2Sc3ccccc3NC3=C2C(=O)c2ccccc23)cc1OC (stereo not given) | 206.6%[activator] | 8.1%
CCCn1c2ccc(F)cc2c2n[nH]c(=S)nc21 | 17.0% | -3.3%
CCNS(=O)(=O)c1ccc(C)c(C(=O)Nc2cccc3c2CCCC3)c1 | 14.5% | -1.5%
Cc1ccc2[nH]c(=S)nc(-c3ccccc3)c2c1 | -10.4% | -6.5%
CC(C)CC(=O)N1CCC(N2CCN(C)CC2)CC1 | -12.3% | -13.0%
Cc1ccc(CNc2nc(-c3ccco3)nn2C(=O)CC(C)C)cc1 | 14.5% | 126.2%[activator]
Nc1nccnc1C(=O)NCC1(c2ccccc2)CCC1 | -15.2%[1.06 µM] | -26.8%
CC1CCCN(C(=O)CCNC(=O)c2ccccc2Cl)C1 (stereo not given) | -14.2% | 12.6%
COCCNC(=O)c1c(NC(=O)Cc2coc3cc(C)ccc23)sc2c1CCCC2 | 129.0%[activator] | -8.1%
CCc1ccc(-c2noc(Cn3nc(C)c(S(=O)(=O)N4CCc5ccccc54)c3C)n2)cc1 | 7.8% | 0.0%
Cc1cccc(CCNC(=O)Cn2ncc3c(=O)oc4ccccc4c32)c1 | -3.9% | -9.2%
COc1cc(/C=N/O)cc(I)c1OC | 10.8% | 16.6%
O=C(Nc1ccc(NS(=O)(=O)c2ccc(F)cc2)cc1)c1cncn1-c1ccccc1 | 21.9% | -19.6%
Cc1ccc(Nc2cc(C)nc3c(-c4ccccc4)cnn23)cc1 | 4.4% | 48.1%[activator]
Cc1cccc(-c2noc(-c3ccc(N4CCN(C)CC4)c([N+](=O)[O-])c3)n2)c1 | -4.3% | -10.7%
O=C(Nc1cccc2cccnc12)c1cccc2ccccc12 | 66.3%&0.0%[activator] | 82.1%&-3.4%[activator]
Cc1ccccc1CNC(=O)c1cc(-c2ccncc2)nc2ccccc12 | 103.0%[activator] | 6.9%
COc1ccc(C(=O)Nc2ccc(C(=O)NC(C)(C)C)cc2)cc1 | 3.9% | 0.0%
COc1ccc(OCC(=O)NC2CC(=O)N(c3ccc4c(c3)OCCO4)C2)cc1 (stereo not given) | -7.5% | -14.9%

Profiles, looked up by structure. Values in the order: StopGo RLuc | 2A firefly
`Cc1ccc(CN2C(=O)CN(C3CCCCCC3)C(=O)C2c2ccc(F)cc2)cc1` (stereo not given) is entered as -14.3% | -18.8%
`O=C(COc1ccccc1)NC12CC3CC(CC(C3)C1)C2` is entered as 21.5% | 39.7%[activator]
`CCCn1c2ccc(F)cc2c2n[nH]c(=S)nc21` is entered as 17.0% | -3.3%
`CC(C)CC(=O)N1CCC(N2CCN(C)CC2)CC1` is entered as -12.3% | -13.0%
`COc1ccc(NC(=O)CCS(=O)(=O)c2cc(Br)cc3c2N(C(C)=O)CC3)c(OC)c1` is entered as -13.7% | -16.6%

More results follow:
SMILES | StopGo RLuc | 2A firefly
N#Cc1ccccc1NC(=O)c1cc2c(=O)n3ccccc3nc2s1 | -9.5% | 22.0%
COc1ccccc1NC(=O)COC(=O)CCS(=O)(=O)c1ccc(C)c(C)c1 | 1.0% | 10.4%
COCCCNc1oc(-c2ccc(S(=O)(=O)N3CCOCC3)cc2)nc1C#N | 0.0% | 7.8%
CC1CCN(S(=O)(=O)c2ccc3nc(-c4cccnc4)cc(C(=O)NCCCOC(C)C)c3c2)CC1 | -0.9% | -6.7%
CCc1cccc(-n2nnc(-c3nsc(NC(=O)c4cccc(F)c4)n3)c2C)c1 | 15.2% | 47.5%[activator]
COc1cc2c(Nc3ccc(Br)cc3F)ncnc2cc1OCC1CCN(C)CC1 | -10.1% | -7.7%[11.5 µM]
Cc1ccc(-c2nc3ccc(Br)cc3c(=O)o2)cc1C | -5.6% | 5.5%
O=C(Nc1cccc(Br)c1)Nc1nc2c(s1)CCCCCC2 | -16.2% | 0.0%
Cc1ccc(NC(=O)CN(C)S(=O)(=O)c2ccc3c(c2)n(C)c(=O)c(=O)n3C)cc1C | -3.0% | -10.1%
COCc1cccc(C(=O)NCCC(c2ccccc2)c2ccccc2)c1 | 4.8% | 38.8%[activator]
Cc1nc2cc(NC(=O)CC3(C(=O)O)CCCCC3)ccc2o1 | -9.1% | 2.5%
COc1cc(NS(=O)(=O)c2ccc(-c3cc(C)no3)cc2)cc(OC)c1 | -8.6% | u
CS(=O)(=O)Nc1ccccc1NC(=O)CCc1ccccc1 | 0.3% | -4.0%
C/C(=N/Nc1ccccc1)C1(C)N(O)C(C)(C)C(c2ccc(C)cc2)=[N+]1[O-] (stereo not given) | 5.3% | 0.3%
Cc1ccc(-c2cnc(CCC(=O)N(C)Cc3ccco3)o2)cc1C | 1.5% | 77.7%[activator]
CC(=O)c1cccc(NC(=O)CC2C=CCC2)c1 (stereo not given) | 59.6%[activator] | 27.3%
CCC(=O)Nc1cc(-c2nnc(OC)c3ccccc23)ccc1N1CCOCC1 | 5.1% | 7.3%
CC(c1ccccc1)N(C)CC(=O)NC1(C#N)CCCC1 (stereo not given) | 3.5% | 0.7%
CCCC(=O)NC1(C(F)(F)F)N=C(c2ccccc2)N(CCc2ccccc2)C1=O (stereo not given) | 3.9% | -4.7%
Cc1c(C)n(-c2ccccc2)c2ncn(CC(=O)NCCc3ccc(Cl)cc3)c(=O)c12 | -7.5% | 11.3%
CCOc1ccc(C2c3c(oc4ccccc4c3=O)C(=O)N2c2nnc(C)s2)cc1OC (stereo not given) | 10.2% | -13.7%
Cc1cc(NC(=O)CSc2nc(-c3cccc(F)c3)nc3c2c(=O)n(C)c(=O)n3C)no1 | -9.8% | -9.6%
Cc1[nH]c2c(C)ccc(C)c2c1CCN | -12.3% | -1.5%
Fc1ccc(/C=N/Nc2cc(C(F)(F)F)ccc2Cl)cc1 | 7.9% | 4.1%
COc1cccc(CNC(=O)C2CCCN(c3nn4cc(-c5ccc(C)cc5)nc4s3)C2)c1 (stereo not given) | -10.6% | 60.7%[activator]

The closing 6 records of the part above lead into the next.
SMILES | StopGo RLuc | 2A firefly
Cc1c(C)n(-c2ccccc2)c2ncn(CC(=O)NCCc3ccc(Cl)cc3)c(=O)c12 | -7.5% | 11.3%
CCOc1ccc(C2c3c(oc4ccccc4c3=O)C(=O)N2c2nnc(C)s2)cc1OC (stereo not given) | 10.2% | -13.7%
Cc1cc(NC(=O)CSc2nc(-c3cccc(F)c3)nc3c2c(=O)n(C)c(=O)n3C)no1 | -9.8% | -9.6%
Cc1[nH]c2c(C)ccc(C)c2c1CCN | -12.3% | -1.5%
Fc1ccc(/C=N/Nc2cc(C(F)(F)F)ccc2Cl)cc1 | 7.9% | 4.1%
COc1cccc(CNC(=O)C2CCCN(c3nn4cc(-c5ccc(C)cc5)nc4s3)C2)c1 (stereo not given) | -10.6% | 60.7%[activator]
Cc1cc(Cl)ccc1NC(=O)c1cccc(NC(=O)N2CCSc3ncccc32)c1 | -23.9% | 49.6%[activator]
CCCCN(C)Cc1cccc(OC)c1OC | -14.0% | -7.6%
Oc1c(C(c2cccs2)N2CCCC2)sc2nc(-c3ccco3)nn12 (stereo not given) | 0.0% | 0.0%
NCCC(=O)Nc1cccc2ccccc12 | -3.7% | -7.1%
CC(=O)Nc1ccccc1OCc1cc(C)cc(C)c1 | u | u
Cc1ccsc1C(=O)NCc1ccccn1 | 3.3% | 0.0%
Cc1nc2c(C(=O)NCc3ccccc3)c[nH]n2c(=O)c1Cc1ccccc1Cl | -19.2% | -6.5%
CCCNc1nc2ccccc2nc1C(=O)Nc1ccc(C(=O)OCC)cc1 | -8.4% | -3.3%
CCCc1nc2ccccc2n2c(-c3ccccc3)c3c(=O)n(C)c(=O)n(C)c3c12 | 0.7% | 0.4%
N#C/C(=C\c1cccc(OC(=O)c2ccc(Cl)cc2Cl)c1)C(=O)Nc1cccc(C(F)(F)F)c1 | 21.1% | 222.1%[activator]
CCc1ccc(CN(C)CC(=O)Nc2ccc(C(F)(F)F)cc2)cc1 | 21.7% | 16.3%
COc1ccc(-n2c(C)nc3cc(C(=O)NC4CCCC4)ccc32)cc1 | 46.7%[activator] | -4.7%
Cc1cc(Nc2ccccc2)c2c([N+](=O)[O-])c(C)cc(C)c2n1 | 30.8%[activator] | 25.0%
COC(=O)C1=C(C)N(C)C(C)=C(C(=O)OC)C1c1ccc(C)s1 | 4.3% | 15.2%
COc1ccc(C(=O)COC(=O)COc2ccc(F)cc2Cl)cc1OC | -13.1% | -4.3%
S=C(NCCCCCCNC(=S)Nc1cccc(Cl)c1)Nc1cccc(Cl)c1 | 6.9% | u
COc1cc(/C=C/c2ccc3cccc(OC)c3n2)ccc1OC(C)=O | 4.9% | 156.1%[activator]

Quoted at random: 2 compounds from above.
SMILES | StopGo RLuc | 2A firefly
CCCNc1nc2ccccc2nc1C(=O)Nc1ccc(C(=O)OCC)cc1 | -8.4% | -3.3%
NCCC(=O)Nc1cccc2ccccc12 | -3.7% | -7.1%

3 entries from above, ordered by number of heavy atoms, lowest first:
SMILES | StopGo RLuc | 2A firefly
Oc1c(C(c2cccs2)N2CCCC2)sc2nc(-c3ccco3)nn12 (stereo not given) | 0.0% | 0.0%
S=C(NCCCCCCNC(=S)Nc1cccc(Cl)c1)Nc1cccc(Cl)c1 | 6.9% | u
Cc1nc2c(C(=O)NCc3ccccc3)c[nH]n2c(=O)c1Cc1ccccc1Cl | -19.2% | -6.5%

Assay outcomes deposited in PubChem by National Center for Advancing Translational Sciences (NCATS).
